Bioassay records as filed in PubChem BioAssay.
Polio RdRp inh – poliovirus RNA polymerase inhibition | % elongation, % (compound at 16.7 µg/mL) | P03300 | poliovirus polymerase elongation, fluorescence polarization; stronger effect = lower value | 150,000 compounds, 0.66% hits; in the data active = % elongation below about 90%; also: some results filed as inactive read as strong as hits
Target sequence (P03300 1749-2209 limits assumed): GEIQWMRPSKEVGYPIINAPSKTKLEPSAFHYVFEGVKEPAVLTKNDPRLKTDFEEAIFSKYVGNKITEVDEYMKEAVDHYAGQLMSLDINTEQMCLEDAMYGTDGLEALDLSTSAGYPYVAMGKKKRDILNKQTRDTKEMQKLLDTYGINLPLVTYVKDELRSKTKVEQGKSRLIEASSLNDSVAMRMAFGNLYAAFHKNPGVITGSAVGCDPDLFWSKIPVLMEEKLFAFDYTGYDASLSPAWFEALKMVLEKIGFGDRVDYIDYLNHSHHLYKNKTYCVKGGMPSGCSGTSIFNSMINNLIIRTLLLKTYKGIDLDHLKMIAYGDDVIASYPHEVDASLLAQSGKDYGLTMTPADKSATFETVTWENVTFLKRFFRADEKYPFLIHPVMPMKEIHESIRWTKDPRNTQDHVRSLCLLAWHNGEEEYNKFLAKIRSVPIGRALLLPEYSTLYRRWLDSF
Polio RdRp inh intensity – further read-out of Polio RdRp inh, marked with its call; % elongation; measured here: total intensity read-out; formula for this scale not given here;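 total fluorescence in place of polarization; lower means less elongation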
Numbers without * were called inactive. A portion of the library. The share of hits here may be higher or lower than overall.

SMILES	Polio RdRp inh	Polio RdRp inh intensity
COc1cccc(CNC(=O)c2ccc3c(c2)N(C)C(=O)C2CCCCN32)c1 (centres undefined)	101	111
COc1ccc(CNC(=O)Cc2coc3ccc(C)cc23)cc1	117	115
CCOc1ccccc1NC(=O)Cn1c(=O)n(C(C)C)c(=O)c2oc3ccccc3c21	108	93
CCCOc1ccc(C2C(=O)N(C3CCCCCC3)CC(=O)N2Cc2ccc(OC)cc2)cc1OC (centres undefined)	102	105
Cc1cc(C)c2c(n1)nn1c(C)c(CCC(=O)NCc3ccc(Cl)cc3)c(C)nc21	102	104
CCOC(=O)c1c(C)oc2nc(C)nc(N3CCN(c4ccccc4)CC3)c12	108	102
Cc1nc2sccn2c(=O)c1S(=O)(=O)Nc1ccc(N2CCOCC2)cc1	110	108
O=c1[nH]c(SCc2ccc(Br)cc2)nc2c1CCCC2	112	118

Going on with the list:
SMILES	Polio RdRp inh	Polio RdRp inh intensity
O=C(NCc1ccccc1Cl)c1ccc(CSCc2ccccc2Cl)o1	114	117
Cc1nc2cc(-c3cccc(F)c3)nn2c(C)c1CCC(=O)N1CCN(c2ccc(F)cc2)CC1	102	105
COC(=O)c1c(Oc2ccc(Br)cc2)nnc(-c2ccccc2)c1-c1ccccc1	110	110
CCOc1ccc(-c2cc3c(=O)n(CC(=O)Nc4cc(F)ccc4C)ccn3n2)cc1	107	103
CCN(c1ccccc1)S(=O)(=O)c1nnc(NC(=O)C(C)Oc2ccccc2)s1 (centres undefined)	113	115
Cc1ccc(NC(=O)Cn2cnc3sc(C(=O)O)c(C)c3c2=O)cc1Cl	109	108
Cc1ccccc1Nc1c(-c2ccccc2O)nc2sccn12	108	112
CCOC(=O)c1cc(-c2ccccc2)n(CCC(=O)NCCc2cccc(C)c2)c1C	103	108

(list continues)
SMILES	Polio RdRp inh	Polio RdRp inh intensity
COc1ccc(CNC(=O)c2ccc3c(c2)N(Cc2cc(C)ccc2C)C(=O)CS3)cc1	107	113
CCOCCCn1c(SCC(=O)Nc2ccccc2Cl)nc2c(oc3ccccc32)c1=O	106	109
Clc1ccc(-c2cc3ncc4c(n3n2)-c2ccccc2OC4)cc1	104	107
COc1cccc(CCNc2ncnc3c2nnn3C)c1	110	112
COc1ccccc1Cc1nc2ccccc2nc1SCC(=O)N1CCc2ccccc21	101	104
Cc1ccc(N2CCN(S(=O)(=O)c3nnc(NC(=O)c4cccc(F)c4)s3)CC2)cc1	117	113
CC(C)Nc1cc(N2CCN(C3CCCCC3)CC2)c2noc3c2c1C(=O)c1ccccc1-3	96	103
O=C(COc1ccccc1)Nc1sc2c(c1C(=O)Nc1ccccc1Cl)CCCCC2	102	103

Other results
SMILES	Polio RdRp inh	Polio RdRp inh intensity
O=C(CSc1n[nH]c(-c2ccccc2)n1)N1CCN(c2ccc(F)cc2)CC1	103	111
CC(C)(C)c1ccc(C(=O)Nc2ccc(-c3nc4ccccc4o3)c(O)c2)cc1	-10*	27*
COc1ccc(N(CC(=O)NCCc2cccc(C)c2)S(=O)(=O)c2c(C)noc2C)cc1	103	106
CC1CCC(NC(=O)c2cc3c(Cl)nc4ccccc4c3s2)CC1 (centres undefined)	108	111
CCC1CCCCN1C(=O)Cn1c(=O)n(CCCCCC(=O)NCc2ccc(F)cc2)c(=O)c2sccc21 (centres undefined)	104	99
Cn1c(=O)c2c(ncn2CC(=O)Nc2cc(Cl)cc(Cl)c2)n(C)c1=O	103	104
COc1ccc(Cl)cc1C(=O)NCC(c1ccc(N(C)C)cc1)N1CCCC1 (centres undefined)	111	99
CCc1cccc(NC(=O)Cc2nc(-c3ccc(OC)cc3)no2)c1	110	105

The listing continues:
SMILES	Polio RdRp inh	Polio RdRp inh intensity
CC1CCCN(c2csc3ccccc3c2=O)C1 (centres undefined)	108	106
Cc1cccc(-n2c(=O)c3ccccc3n(Cc3ccc(F)cc3)c2=O)c1	105	104
COc1ccc(OC)c(NC(=O)Cn2c(=O)cc(-c3ccccc3)c3c(C)nn(C)c32)c1	109	111
COc1ccc(OCC(=O)Nc2ccc(Cl)c(-c3nc4ncccc4o3)c2)cc1	103	99
COC(=O)c1sccc1S(=O)(=O)N(CC(=O)NCc1ccc(C)cc1)c1ccc(C)cc1	105	106
Cc1ccccc1CNC(=O)CCCn1c(=O)c2cccn2c2cccnc21	102	103
Cc1ccc(N(C)S(=O)(=O)c2ccc(-c3cnc(C4CC4)o3)cc2)cc1	106	109
COc1ccc(NC(=O)CSC2=Nc3ccccc3N=C(c3ccc(F)cc3)C2)cc1OC	105	94

(listing goes on)
SMILES	Polio RdRp inh	Polio RdRp inh intensity
Cc1ccc(C(=O)N(Cc2ccco2)c2ccccn2)cc1	112	108
COc1ccc(NC(=O)c2cccc(N3CCCS3(=O)=O)c2)c(OC)c1	104	110
Cc1ccc(NC(=O)CN(C)S(=O)(=O)c2cccc3nsnc23)c(C)c1	104	103
CCN1C(=O)c2ccccc2S(=O)c2ccc(C(=O)N3CCN(c4cccc(Cl)c4)CC3)cc21 (centres undefined)	104	103
CCC(C(=O)Nc1ccccc1)n1nc(-c2cc(C)ccc2C)ccc1=O (centres undefined)	103	106
CCN(CCCNC(=O)c1c(C)oc2ncn(CC(C)C)c(=O)c12)Cc1ccccc1	108	111
O=S(=O)(c1ccccc1)c1nc(-c2ccco2)oc1SCc1ccc(F)cc1	103	106
COc1ccc(CCN2CCC(CNC(=O)c3cnn(-c4cccc(Cl)c4)c3C3CCN(C(=O)OC(C)(C)C)CC3)CC2)cc1	105	106

Going on with the list:
SMILES	Polio RdRp inh	Polio RdRp inh intensity
CCc1ccccc1NC(=O)C1CCCN(c2nnc(-n3c(C)ccc3C)s2)C1 (centres undefined)	105	108
COc1ccccc1C(=O)Nc1nc(-c2ccccc2)ns1	105	110
Cc1ccc(-c2nn(-c3ccccc3)c3c2cnc2ccccc23)cc1C	104	106
Cc1ccc(-n2ccn(CC(=O)NCCc3ccccc3)c(=O)c2=O)cc1C	113	116
CCOC(=O)c1c(C)c(-c2ccccc2)n(CC(=O)NCc2ccccc2)c1C	101	106
Cc1cc(N2CCN(c3cccc(C)c3C)CC2)n2nc(C)c(-c3ccc(Cl)cc3)c2n1	105	102
CCOc1ccc(CCNC(=O)c2cnc3sc(N4CCC(C)CC4)nn3c2=O)cc1	105	108
CCOc1ccccc1NS(=O)(=O)c1cc2[nH]c(=O)c(=O)[nH]c2cc1C	102	106

(next part)
SMILES	Polio RdRp inh	Polio RdRp inh intensity
Cc1ccccc1OCC(=O)Nc1ccc(C(=O)OCc2cc(=O)n3c(C)csc3n2)cc1	103	99
CCOC(=O)Cn1c(=O)n(C2CCCCC2)c2nc(-c3ccc(OC)cc3)nc(C(N)=O)c21	109	109
COc1ccc(NC(=O)C(C)n2nc(-c3cc(C)ccc3C)c3c(c2=O)CCCC3)cc1 (centres undefined)	109	105
CCOCCCn1c(SCC(=O)Nc2ccc(C)cc2)nc2ccccc2c1=O	101	110
CCN(CC)CCCNC(=O)c1cnc(SC)nc1-c1ccccc1	105	115
COc1ccc(NC(=O)CSc2ccc3nc(-c4ccccc4)cn3n2)c(OC)c1	110	110
CC(C)Oc1ccc(CNC(=O)c2cc3cccc4c3n2CC(C)S4)cc1 (centres undefined)	112	106
CCOC(=O)Cc1ccc(NC(=O)NC(C)c2c(-n3cccc3)sc(C)c2C)cc1 (centres undefined)	107	111

Single records (already shown). Screens in order: Polio RdRp inh | Polio RdRp inh intensity
`CCOCCCn1c(SCC(=O)Nc2ccc(C)cc2)nc2ccccc2c1=O` in the list: 101 | 110
`COc1ccc(NC(=O)C(C)n2nc(-c3cc(C)ccc3C)c3c(c2=O)CCCC3)cc1` (centres undefined) in the list: 109 | 105
`COc1ccc(NC(=O)CSc2ccc3nc(-c4ccccc4)cn3n2)c(OC)c1` in the list: 110 | 110
`CCOC(=O)Cn1c(=O)n(C2CCCCC2)c2nc(-c3ccc(OC)cc3)nc(C(N)=O)c21` in the list: 109 | 109
`CCN(CC)CCCNC(=O)c1cnc(SC)nc1-c1ccccc1` in the list: 105 | 115

(next part)
SMILES	Polio RdRp inh	Polio RdRp inh intensity
CCCc1cc(=O)oc2cc(C)c3c(C(C)(C)C)coc3c12	106	109
COc1cccc(CN2CCCN(Cc3ccc(F)cc3)S2(=O)=O)c1	106	103
CCCc1ccc(OC(=O)c2sc3ncn(Cc4cccc(F)c4)c(=O)c3c2C)cc1	99	104
Cc1cccc(-c2nc3cc(NC(=O)COc4ccccc4F)ccc3o2)c1	114	107
Cc1cccc(NC(=O)CCn2cnnn2)c1	102	105
COc1ccccc1C(=O)OCc1cc(=O)n2nc(C3CCCCC3)sc2n1	112	114
COC(=O)c1c(-c2ccc(Cl)cc2)noc1N1CCN(c2cccc(C)c2C)CC1	114	109
Cc1cc(C)cc(OCCSc2nc(-c3cccs3)nc3cc(=O)[nH]n23)c1	109	106

Following part.
SMILES	Polio RdRp inh	Polio RdRp inh intensity
COc1ccc(Cn2nnc3c(=O)[nH]c(C4CCCN(C(=O)c5ccccc5Cl)C4)nc32)cc1OC (centres undefined)	107	106
CCc1nn2c(=O)cc(COc3ccc(/C=C(\C#N)C(=O)Nc4ccc(C)cc4)cc3)nc2s1	99	103
Cc1ccc(-n2ncc3c(N4CCC(Cc5ccccc5)CC4)ncnc32)cc1	108	109
O=S(=O)(Nc1ccc(F)cc1F)c1ccc(Br)s1	106	109
Cc1ccc(CCNC(=O)CN2C(=O)COc3ccc(S(=O)(=O)N4CCCCCC4)cc32)cc1	118	124
CCn1c(SCc2ccc(F)cc2Cl)nnc1-c1nonc1NC(C)=O	104	96
CCOc1ccc(NC(=O)c2ccc3[nH]c(C)c(C)c3c2)cc1	107	104
O=C(Cn1c(=O)n(-c2ccc(Cl)cc2)c(=O)c2sc3ccccc3c21)NC1CCCCC1	105	109

Continuation:
SMILES	Polio RdRp inh	Polio RdRp inh intensity
CCOc1ccc(C(=O)CSc2nnc3cc(C)c4ccccc4n23)cc1	107	105
COc1cc(N2C(=O)CSC23C(=O)N(C)c2ccccc23)cc(OC)c1OC (centres undefined)	106	114
CCOC(=O)COc1ccc(C)cc1C(=O)c1ccn2nc(-c3ccc(C)cc3)cc2n1	107	110
COc1cccc(NC(=O)Cc2csc(COc3cccc(C)c3)n2)c1	111	111
O=C(COc1ccccc1F)OCc1cc(=O)n2nc(-c3cccs3)sc2n1	101	102
Cc1ccc(-c2cc(C(=O)Oc3ccc(C#N)cc3)no2)cc1C	104	105
O=c1c2oc3ccccc3c2ncn1Cc1ccc(Br)cc1	100	93
Cc1oc(-c2ccc(C(=O)NCCN(C)C)cc2)nc1CS(=O)(=O)c1ccccc1	103	106

New compounds follow.
SMILES	Polio RdRp inh	Polio RdRp inh intensity
Cc1nnc(NC(=O)CSc2nccn2Cc2ccccc2)s1	102	110
CCOc1ccccc1N1CC(c2nc3ccccc3n2Cc2c(C)cc(C)cc2C)CC1=O (centres undefined)	113	115
O=S(=O)(Nc1ccc2nc(-c3cccc(Cl)c3)oc2c1)c1ccccc1	102	100
Clc1ccc2nc(-c3ccc(Br)o3)c(Nc3ccc4c(c3)OCCO4)n2c1	101	105
CCN(c1ncnc2c1cnn2-c1cc(Cl)ccc1C)C1CCCCC1	110	109
O=C(O)CC(NS(=O)(=O)c1ccc(Cl)s1)c1ccccc1 (centres undefined)	100	106
COC(=O)c1c(NC(=O)COc2ccc(Cl)cc2)sc(C)c1C	109	113
Cc1c(Cl)cccc1NC(=O)c1cc2sccc2n1Cc1ccc(F)cc1	102	104

The list goes on.
SMILES	Polio RdRp inh	Polio RdRp inh intensity
COc1ccc(C(=O)Nc2cc(C(C)C)c(O)c(S(=O)(=O)c3ccc(OC)cc3)c2C)cc1	107	110
CCOC(=O)c1cc(-c2ccccc2)n(CCCC(=O)Nc2ccccc2C)c1C	108	105
CCc1cc2c(cc3c(=O)n(CCCC(=O)NCc4ccccc4Cl)nc(CC)n32)s1	109	112
Cc1nn(CC(=O)N2CCN(c3cccc(C(F)(F)F)c3)CC2)c(=O)c2cc3sccc3n12	106	108
COc1ccc(CCNC(=O)CN(c2ccc(C)cc2)S(=O)(=O)c2ccc(OC)cc2)cc1	105	110
CC(=O)N1CCc2c(sc3nc(SCC(C)C)n(-c4ccc(C)c(Cl)c4)c(=O)c23)C1	104	109
CCN1C(C(=O)c2ccccc2)=C(OC(=O)COc2ccc(C)cc2)c2ccccc2S1(=O)=O	103	96
Cc1cccc(NC(=O)Cn2c(=O)nc(-c3ccccc3)c3ccccc32)c1C	110	105

Following part
SMILES	Polio RdRp inh	Polio RdRp inh intensity
CCCNC(=O)C1CCC(Cn2c(=O)c3sccc3n(Cc3ccccc3C)c2=O)CC1 (centres undefined)	106	107
Cn1c(=O)oc2cc(S(=O)(=O)N3CCCC(C(=O)N4CCN(c5cccc(Cl)c5)CC4)C3)ccc21 (centres undefined)	104	108
COc1ccc(-c2oc3ncn4nc(COc5ccc(C)cc5)nc4c3c2-c2ccc(OC)cc2)cc1	103	105
CCOc1cc(-c2ccc(OC(=O)c3ccc(OC)cc3)c(OC)c2)cc(=O)c2c(C)oc(C)c12	107	113
CC(=O)c1ccc(NC(=O)/C=C/c2ccc(C)o2)cc1	108	108
CCN(C(=O)CN1C(=O)COc2ccc(S(=O)(=O)N3CCOCC3)cc21)c1ccc(OC)cc1	120	122
CCCN1C(=O)C(O)(CC(=O)c2ccc(CC)cc2)c2cc(Br)ccc21 (centres undefined)	104	88
CC(=O)Nc1ccc(S(=O)(=O)N2CCC(c3ccncc3)CC2)cc1	108	112

Arranged by SMILES length (smallest number first): four of the compounds above
SMILES	Polio RdRp inh	Polio RdRp inh intensity
CC(=O)c1ccc(NC(=O)/C=C/c2ccc(C)o2)cc1	108	108
CCCNC(=O)C1CCC(Cn2c(=O)c3sccc3n(Cc3ccccc3C)c2=O)CC1 (centres undefined)	106	107
CCN(C(=O)CN1C(=O)COc2ccc(S(=O)(=O)N3CCOCC3)cc21)c1ccc(OC)cc1	120	122
CCOc1cc(-c2ccc(OC(=O)c3ccc(OC)cc3)c(OC)c2)cc(=O)c2c(C)oc(C)c12	107	113

Next part:
SMILES	Polio RdRp inh	Polio RdRp inh intensity
CCc1cccc(NC(=O)Cn2c(-c3ccc(F)cc3)cc(C(C)=O)c2C)c1	98	103
O=C(NCc1cccs1)c1ccc(CSc2nc3ccncc3n2Cc2ccccc2)cc1	106	104
COc1ccc(-c2nc(CN3C(=O)CN=C(c4ccccc4)c4ccccc43)c(C)o2)cc1OC	109	103
Cc1ccccc1-n1c(/C=C/c2ccc(N(C)C)cc2)nc2ccccc2c1=O	84	234
